# Assay outcomes from PubChem BioAssay.
# miR-21 FLuc – raises the signal of a miR-21 reporter. HeLa miR-21 FLuc reporter, luciferase, 48 h. Potency, µM (titrated, usually from 38.3 µM), inactives show at the highest dose reporter change, positive = more light. 340,000 tested, under 10 active. AID 2288; active = well fitted rising curve with a large enough effect; inconclusive = small, poorly fitted or top-dose-only effect; inactive = no such curve, though single readings can be large or run the other way;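 note: % of control where 0% means no effect; miR-21 action dims this reporter so a rising signal means less miR-21 action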
#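 Luminescence from a firefly luciferase reporter carrying a miR-21 binding site downstream, stably expressed under a CMV promoter in HeLa cells that make miR-21 endogenously, reports miRNA modulation after 48 h compound exposure up to approximately 40uM final.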
# Active calls of the source: *; ? = inconclusive; [ ] = dose if it differs, or a comment. Not all compounds are listed (hit frequency here may not be typical).
# Start of the data: the first 4 compounds as a preview:
compound	miR-21 FLuc
Cc1c(C(=O)Nc2ccc(F)cc2)sc2nc[nH]c(=O)c12	-14.7%
Cc1cc(-n2c(SCc3ccccc3F)nc3[nH]ncc3c2=O)ccc1Cl	-80.1%
CCOC(=O)Cc1ccc(NC(=O)NCc2cccn2Cc2ccccc2)cc1	6.3%
CCOc1ccc(CCNC(=O)CCCn2c(=O)c3cccn3c3ccccc32)cc1	-2.3%

# The list itself, from the start:
compound	miR-21 FLuc
Cc1c(C(=O)Nc2ccc(F)cc2)sc2nc[nH]c(=O)c12	-14.7%
Cc1cc(-n2c(SCc3ccccc3F)nc3[nH]ncc3c2=O)ccc1Cl	-80.1%
CCOC(=O)Cc1ccc(NC(=O)NCc2cccn2Cc2ccccc2)cc1	6.3%
CCOc1ccc(CCNC(=O)CCCn2c(=O)c3cccn3c3ccccc32)cc1	-2.3%
COc1ccc(OC)c(NC(=O)c2ccc3c(SCC(=O)O)c4c(nc3c2)CCCC4)c1	-18.8%
CCOc1ccc(-c2nc(C#N)c(NCCCOC)o2)cc1	-27.4%
CCN(CC)C(=O)C1=CC(c2ccc3c(c2)OCO3)=NS(=O)(=O)N1C	-15.8%
CC(C)CCNC(=O)[C@@H](c1ccccc1)N1Cc2ccccc2C1=O	0.7%
COc1ccc(CCNC(=O)c2ccc3c(c2)CCN3S(=O)(=O)c2ccccc2)cc1OC	?
CCOc1ccc(C(c2c(C)[nH]n(-c3ccccc3)c2=O)c2c(C)[nH]n(-c3ccccc3)c2=O)cc1OC	2.3%
O=C(NCCN1CCN(c2ccccc2F)CC1)C1COc2ccccc2C1 (stereo not drawn)	2.3%
Cn1c(=O)oc2cc(S(=O)(=O)NCCC(=O)Nc3ccc(F)c(Cl)c3)ccc21	0.9%
COc1cccc(CSc2nc3ccccc3c3nc(CCn4c(C)nc5ccccc54)nn23)c1	-0.4%
CCn1c2c(c(=O)n3ncc(C(=O)N4CCN(c5ccccc5)CC4)c13)CN(Cc1ccc(OC)cc1)CC2	-6.4%
COc1ccc(N2CCN(C(=O)c3nn(-c4ccc(C)cc4)c(=O)n(C)c3=O)CC2)cc1	0.3%
COc1ccc(C2C(C(N)=O)=C(C)Nc3nc(CCCO)nn32)c(OC)c1 (stereo not drawn)	-1.6%
Cc1ccc(NC(=O)CN2C(=O)C(C)(C)c3ccccc32)cc1	2.4%
COc1cccc(C(=O)c2c(N)c(-c3nc(-c4ccccc4)cs3)c3ccccn23)c1	16.0%
CCc1cccc(NC(=O)c2cn3c4c(ccc(Cl)c4c2=O)OC(C)C3)c1 (stereo not drawn)	4.2%
Cc1ccc(Cn2ccnc2SCC(=O)Nc2ccc3c(c2)OCO3)cc1	-6.6%
CC(C)c1ccc(NC(=O)c2ccc(F)c(S(=O)(=O)N3CCCCCC3)c2)cc1	11.8%
COc1cc(C2c3c(oc4cc(C)c(C)cc4c3=O)C(=O)N2CCCN2CCOCC2)ccc1O (stereo not drawn)	-15.9%
O=S(=O)(NCCc1csc2nc(-c3ccccc3)nn12)c1ccc(Oc2ccccc2)cc1	12.8%
COc1ccc(C(=O)Nc2ccccc2-c2nc(-c3ccc(OC)cc3)no2)cc1	-9.5%
O=C(CCC(=O)N1CC2CCCN2c2ccccc21)NCc1ccccc1 (stereo not drawn)	-1.2%

# (more compounds)
compound	miR-21 FLuc
CCOc1ccc(NC(=O)CCSc2nc(-c3ccc4c(c3)OCO4)cc(C(F)(F)F)n2)cc1	-12.8%
COc1ccc(C(=O)c2cn(CC(=O)Nc3cc(C)ccc3C)c3nc(C)ccc3c2=O)cc1	-11.1%
COc1ccc(-c2cc3nc(-c4ccc(C)cc4)cc(C(F)(F)F)n3n2)cc1	0.3%
CCCCOc1ccc(C(=O)N2CCN(CCc3ccncc3)CC2)cc1	-28.9%
O=C(CNS(=O)(=O)c1cccs1)N1CCN(c2ccccc2Cl)CC1	-58.9%
CCOC(=O)C1(C)C=C(Nc2ccc(C(N)=O)cc2)C(=O)N1c1ccccc1 (stereo not drawn)	-30.7%
CCOC(=O)c1c(NC(=O)CS(=O)(=O)c2ccc(Cl)cc2)sc2c1CCCC2	-3.6%
COc1cccc(C(=O)N2CC(=O)Nc3ccc(C)cc3C2c2ccc(F)cc2)c1OC (stereo not drawn)	15.0%
CCCOc1ccc(-c2cccc(NS(=O)(=O)c3ccc(CC)cc3)c2)nn1	5.0%
Cc1ccc(CNC(=O)C(=O)NCC(c2cccs2)S(=O)(=O)c2cccs2)cc1 (stereo not drawn)	9.6%
CCCN(CCC)CCNC(=O)CN1C(=O)COc2ccc(S(=O)(=O)N3CCC(C)CC3)cc21	-4.7%
CC1=C(C(=O)N2CCN(c3ccccc3)CC2)C2(CCCCC2)OC1=O	-3.1%
CCc1ccccc1NC(=O)Cn1nnc(-c2nc(-c3ccncc3)no2)c1N	-0.7%
CC(C)(C)c1ccc(-c2noc(CCC(=O)Nc3cccc(Cl)c3)n2)cc1	?
COc1ccccc1CNC(=O)c1oc2c(c1C)-c1nn(Cc3ccc(Cl)cc3)cc1CC2	-0.9%
CCOc1cc(C(=O)NCc2ccc3c(c2)CCN3C(=O)c2ccc(F)cc2)cc(OCC)c1OCC	26.6%
CCc1ccccc1NC(=O)CSc1nc2ncccc2o1	0.2%
CCOc1ccc(NCc2cccn2-c2nnc(N3CCC(C(=O)NCCc4ccc(OCC)c(OCC)c4)CC3)s2)cc1	19.7%
COCc1cc(C)nc2c1C(=O)NC(c1ccc(C)cc1)N2Cc1ccccc1 (stereo not drawn)	4.1%
O=C(NCCc1ccc(Cl)cc1)c1cc(-c2ccc(Cl)cc2)n[nH]1	0.1%
O=c1c2cc3c(cc2n(Cc2cccc(F)c2)c(=O)n1Cc1nc(-c2ccccc2)no1)OCO3	11.8%
CCc1nccn1S(=O)(=O)c1cc(Br)ccc1Br	-2.5%
COc1ccc(-n2c(=O)c3c4c(sc3n(Cc3c(F)cccc3Cl)c2=O)CN(C(C)=O)CC4)cc1OC	1.1%
COc1ccc(OC)c(/C=C/c2nc3ccccc3c(=O)n2-c2ccc(F)c(Cl)c2)c1	-4.3%
COc1ccc2c(c1)Cc1sc(NC(=O)c3cccc(C)c3)nc1-2	0.6%

# The listing continues:
compound	miR-21 FLuc
COc1cc(NC(=O)CN2C(=O)c3ccccc3Sc3ccc(C(=O)N4CCCC4)cc32)cc(OC)c1	-5.2%
Cc1ccc(-c2nc3ccccn3c2Nc2ccc3c(c2)OCCO3)o1	-42.8%
COc1ccc(NC(=O)c2cccn2-c2nnc(N3CCCCC3)s2)cc1Cl	-10.8%
COc1ccc(C2c3c(n(C)c4ccccc34)C(=O)N2CC(=O)Nc2cccc(Cl)c2)cc1 (stereo not drawn)	21.2%
CN(C)CCNC(=O)C(=O)NCC(c1ccc2c(c1)OCO2)N1CCOCC1 (stereo not drawn)	0.1%
COc1ccc(N2CCN(c3oc(/C=C/c4cc(OC)c(OC)c(OC)c4)nc3C#N)CC2)cc1	-2.0%
O=C(CNC(=O)c1ccccc1)NCCc1ccc(O)c(O)c1	0.0%
Cc1c(C(=O)OC2CCCCCC2)[nH]c2c1C(=O)CC(c1ccccc1)C2 (stereo not drawn)	11.5%
O=C(NCCCN1CCN(c2ccc(F)cc2)CC1)c1cnn(-c2ccc(F)cc2)c1-n1cccc1	20.1%
O=C(Cn1cc(S(=O)(=O)Cc2ccccc2F)c2ccccc21)NCc1ccccc1Cl	-1.9%
Cc1ccc(CN(Cc2cccn2-c2nnc(N3CCCC3=O)s2)C(=O)Nc2ccc(F)cc2)cc1	-6.8%
CCN(Cc1ccccc1)C(=O)Cn1ncc2c(=O)oc3ccc(C)cc3c21	0.8%
Fc1ccc(Nc2nc3ccccc3n3cnnc23)c(F)c1	-20.7%
O=S(=O)(Nc1ccc(-c2ccc(N3CCCCC3)nn2)cc1)c1ccc(OC(F)(F)F)cc1	24.5%
COc1cc(NC(=O)Cn2c(=O)n(Cc3ccco3)c(=O)c3oc4ccccc4c32)cc(OC)c1	5.4%
COc1cccc(NC(=O)Cn2c(-c3nonc3N)nc3ccccc32)c1	-8.0%
Cc1c(C2=CCN(S(=O)(=O)c3ccc(CC(C)C)cc3)CC2)c2ccccc2n1CC(=O)N1CCCC1	-0.4%
CC(C)OC(=O)c1c(NC(=O)c2cccc(C(F)(F)F)c2)sc2c1CCCC2	-1.8%
Cc1cc2c(c(=O)n1-c1ccccc1)C1O[C@](c3ccsc3)(Cc3ccccc31)O2	-9.5%[7.66 µM]
CCOC(=O)N1CCc2c(sc3c2c(=O)n(Cc2ccccc2)c(=O)n3CC(=O)Nc2ccccc2F)C1	0.2%
O=C(NCc1ccco1)c1ccc2c(c1)N(Cc1ccc(Cl)cc1)C(=O)c1ccccc1S2(=O)=O	4.7%
CC(C)N1CCc2c(sc(NC(=O)c3ccc([N+](=O)[O-])o3)c2C(N)=O)C1	14.1%
CCOc1ccc(N(CC(=O)Nc2ccc(OC)cc2)S(=O)(=O)c2ccc(Cl)cc2)cc1	-3.8%
Cc1ccc2c(CC(=O)Nc3cccc(Cl)c3C)coc2c1	-13.6%
CCOC(=O)C1=C(CS(=O)(=O)c2cccc(C(F)(F)F)c2)NC(=O)NC1c1cccc(OC)c1 (stereo not drawn)	11.0%

# (list continues)
compound	miR-21 FLuc
COCCCNc1oc(-c2ccc(COc3ccc(Cl)cc3)o2)nc1C#N	7.3%
COc1cc(OC)cc(N2C(=O)N(CC(=O)c3ccc(F)cc3)c3ccccc3S2(=O)=O)c1	-7.0%
Cc1cccc(CN2CCN(CC(=O)NCCc3ccc(Cl)cc3)C2=O)c1	-0.1%
COc1ccc(C(=O)NC2(C(F)(F)F)C(=O)NC(C)=C2C#N)cc1 (stereo not drawn)	-2.4%
CCOc1ccc(/C=C/C(=O)Nc2sc3c(c2C(=O)OC)C(C(=O)OC)CC3)cc1 (stereo not drawn)	4.4%
COCCN1C(=O)c2[nH]nc(-c3cc(C)ccc3O)c2C1c1ccc(C(C)C)cc1 (stereo not drawn)	27.4%
Cc1ccc(-n2c3c(cc(-c4nc(-c5ccc(Cl)cc5)cs4)c2=O)C(=O)CC(C)(C)C3)cc1C	-2.7%
CCOC(=O)c1cccc(NC(=O)c2ccc3c(c2)nnn3C2CCCC2)c1	-9.1%
Cc1ccc(CN(Cc2cccn2-c2nnc(N3CCCC3=O)s2)C(=O)Nc2ccccc2C(F)(F)F)cc1	20.9%
Cc1ccccc1NC(=O)CCn1nc(-c2ccc(Cl)cc2)c2ccccc2c1=O	13.4%
CC(C)C(=O)NC1CC(=O)N(c2ccc3c(c2)OCCO3)C1 (stereo not drawn)	-6.3%
Cc1ccc2[nH]c(=O)c3cc(C(=O)N4CCN(c5ccccc5F)CC4)sc3c2c1	-0.9%
CC(=O)Nc1ccc(NC(=O)CN2C(=O)CC(c3ccco3)Sc3ccccc32)cc1 (stereo not drawn)	-6.7%
O=C(NCc1ccc(F)cc1)c1nnc(Cc2cccc(F)c2)o1	2.6%
CCOc1ccc2nc(N3CCCC(C(=O)Nc4ccc(CC)cc4)C3)sc2c1 (stereo not drawn)	-16.2%
COc1ccc(NC(=O)CN2CCN(Cc3ccc(F)cc3)S2(=O)=O)cc1Cl	3.1%
CCS(=O)(=O)N1CCc2cc(C(=O)NCCc3ccccc3)ccc21	-11.9%
COc1cc(C(CC(=O)Nc2ccc(C)c(F)c2)N2Cc3ccccc3C2=O)cc(OC)c1OC (stereo not drawn)	-0.7%
Cc1cc(-c2ccc(S(=O)(=O)Nc3ccc(Cl)cc3C)cc2)on1	26.8%
Nc1nonc1C(=O)NCCNCc1ccc(Cl)c(Cl)c1	0.9%
COc1ccc(-c2nc3ccccc3s2)cc1NC(=O)c1cccc(F)c1	-17.3%
O=C(NCCc1csc2nc(-c3ccc(F)cc3)nn12)c1cccc(C(F)(F)F)c1	20.5%
Cc1cccc(Cc2c(C)nc3nc(SCc4ccccc4F)nn3c2C)c1	-1.6%
COc1ccc(-c2ccc(CCC(=O)O)n2-c2cc(Cl)ccc2O)cc1	14.5%
COc1ccc(-n2c(SCC(=O)Nc3nnc(C)s3)nc3c([nH]c4ccccc43)c2=O)cc1	0.4%

# Next section
compound	miR-21 FLuc
CCOC(=O)c1[nH]c(C)c(CCC(=O)N2CCN(c3ccc(Cl)cc3)CC2)c1C	11.1%
COc1ccc(N2CCN(S(=O)(=O)c3ccc(C4CCCCC4)cc3)CC2)cc1	1.8%
CCCCOC(=O)c1ccc(NC(=O)c2ccc3c(c2)CCN3S(=O)(=O)c2ccccc2)cc1	?
O=[N+]([O-])c1cc(-c2nc(-c3ccccc3)no2)ccc1NCC1CCCO1 (stereo not drawn)	25.4%
Cc1cccc(-c2nc3nc(C)cc(NC(C)c4ccccc4)n3n2)c1 (stereo not drawn)	-9.8%
CCOc1ccccc1C(=O)Nc1ccc2nc(N(CC)CC)cc(C)c2c1	-8.0%
COc1ccc(-c2cc(C(F)(F)F)n3nc(C(=O)Nc4ccc(Cl)cc4C(F)(F)F)cc3n2)cc1OC	-0.5%
Cc1ccc(-c2csc(-c3c(N)c(C(=O)c4ccc5c(c4)OCO5)n4ccccc34)n2)cc1C	2.6%
COc1ccc2cc(-c3cn4c(n3)sc3cc(F)ccc34)c(=O)oc2c1	-20.7%
O=C(NCCS(=O)(=O)N1CCN(c2ccc(F)cc2)CC1)c1cccc(C(F)(F)F)c1	10.4%
Cc1ccc(C)c(N2CCN(c3nc4ccc(C)cc4nc3-n3nc(C)cc3C)CC2)c1	-1.2%
COc1ccc(-c2nc(CSc3nnc(C)n4c3cc3occc34)c(C)o2)cc1OC	-3.9%
